rRNA inh HTS = inhibits bacterial ribosomal RNA function over humanized ribosomes. GFP signal change (wild-type ribosome), % (no concentration beside the values). 350,000 tested, 1.6% active. E. coli WT GFP vs humanized-ribosome RFP mutants, fluorescence, 24 h; hits give low values; DMSO median 0, no signal -100;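 active = significant combined selectivity score with lowered wild-type GFP, culture density cut under 30%, mutant RFP and density less affected; inactive = any of these conditions unmet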; note: one replicate is shown; some compounds called inactive have numbers as strong as hits
rRNA inh HTS OD600 = further read-out of rRNA inh HTS, marked with its call; OD600 change, %; measured here: OD600 growth;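 optical density of the mix in the first replicate; 0 = DMSO median and -100 = no signal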
rRNA inh HTS RFP = recorded beside rRNA inh HTS, whose call it bears; RFP signal change, %; measured here: RFP humanized mutant strains;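 first replicate; 0 = DMSO median and -100 = no signal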
* marks the source's active call; other numbers are inactive results; & = joins results of further samples. These rows are one share of the data, so the mix of outcomes need not match the whole.

Order of results: rRNA inh HTS, rRNA inh HTS OD600, rRNA inh HTS RFP
1) COc1ccc(NC(=O)Nc2cccc3c2O[C@H](CN(C)S(=O)(=O)c2ccccc2)[C@H](C)CN([C@@H](C)CO)C3=O)cc1
 : -2, 1, -1.2
2) CC=Cc1ccc2n(c1=O)C[C@H]1[C@H](CO)[C@@H](C(=O)NC3CCC3)[C@@H]2N1Cc1cccnc1 (mixture of isomers)
 : 2, 1, -0.2
3) C[C@H](CO)N1C[C@H](C)[C@H](CN(C)Cc2ccc(Cl)c(Cl)c2)Oc2c(NC(=O)c3nc4ccccc4s3)cccc2C1=O
 : 2, 3, 2.1
4) C[C@H]1CN([C@@H](C)CO)C(=O)c2c(c3ccccc3n2C)-c2ccccc2CO[C@@H]1CN(C)Cc1ccc(C(F)(F)F)cc1
 : 2, 9, -3.0
5) C[C@@H]1CN([C@@H](C)CO)C(=O)c2cc(NC(=O)NC3CCCCC3)ccc2O[C@@H]1CN(C)C(=O)NC1CCCCC1
 : 1, -9, 1.0
6) Cc1ccc(S(=O)(=O)Nc2ccc3c(c2)CC(=O)N([C@@H](C)CO)C[C@H](C)[C@H](CN(C)Cc2ccc(Oc4ccccc4)cc2)O3)cc1
 : 3, 6, 0.9
7) CN(C)CCCNC(=O)C[C@H]1CC[C@@H]2[C@@H](COc3ccc(NC(=O)c4ccc5c(c4)OCO5)cc3C(=O)N2C)O1
 : 0, 1, -2.6
8) CN1C(=O)c2cc(NC(=O)c3cccs3)ccc2OC[C@@H]2O[C@H](CC(=O)N3CCCCC3)CC[C@H]21
 : -1, -1, 0.9
9) C[C@@H]1CN([C@@H](C)CO)C(=O)Cc2cc(NS(C)(=O)=O)ccc2O[C@H]1CN(C)C(=O)Nc1ccc(F)cc1
 : 3, 0, -2.4
10) COc1ccc(C(=O)Nc2ccc3c(c2)C(=O)N(C)[C@H]2CC[C@@H](CC(=O)NCC4CC4)O[C@@H]2CO3)cc1
 : 2, 6, -1.9
11) CN1C(=O)[C@H]2[C@@H](c3ccc(C(F)(F)F)cc3)N[C@]3(CCCN(Cc4ccc(Br)cc4)C3=O)[C@H]2C1=O
 : -32, -44, -2.9
12) O=C(C[C@H]1CC[C@@H](NC(=O)Nc2ccc3c(c2)OCO3)[C@@H](CO)O1)NCc1ccccc1
 : 6&1, -2&6, 0.1&2.3
13) CO[C@H]1CN(C)C(=O)c2cc(NC(=O)NC3CCCC3)ccc2OC[C@@H](C)NC[C@@H]1C
 : 0, 2, -1.4
14) C[C@@H]1CN([C@H](C)CO)C(=O)c2cc(NC(=O)CCN3CCOCC3)ccc2O[C@H]1CN(C)Cc1ccc(C(F)(F)F)cc1
 : -1, 3, -1.2
15) CC(=O)CCC(=O)CNC(=O)CC[C@H]1O[C@@H](n2ccc(=O)[nH]c2=O)[C@H](O)[C@@H]1O
 : 21, 13, 0.0
16) C/C=C/c1cnc2c(c1)C(=O)N([C@H](C)CO)C[C@@H](C)[C@@H](CN(C)C(=O)C1CCC1)O2
 : 5, 12, -0.8
17) O=C(NCC[C@@H]1CC[C@H](NC(=O)c2ccc3c(c2)OCO3)[C@H](CO)O1)Nc1ccc(Cl)cc1
 : -50, -63, 19
18) C[C@@H]1CN([C@H](C)CO)C(=O)c2cccc(NC(=O)Nc3ccccc3)c2O[C@H]1CN(C)Cc1ccc(C(F)(F)F)cc1
 : -7, -9, -3.3
19) Cc1ccc(S(=O)(=O)N(C)C[C@@H]2OCCCC[C@@H](C)Oc3ccc(NC(=O)Nc4c(C)noc4C)cc3C(=O)N([C@H](C)CO)C[C@H]2C)cc1
 : 0, 3, -0.1
20) CO[C@@H](CN(C)S(=O)(=O)c1cccc(Cl)c1)[C@@H](C)CN([C@@H](C)CO)S(=O)(=O)c1ccc(Cl)cc1
 : 5, -27, 28
21) Cc1noc(C)c1NC(=O)Nc1ccc2c(c1)C(=O)N([C@@H](C)CO)C[C@H](C)[C@@H](CN(C)S(C)(=O)=O)OCCCC[C@H](C)O2
 : 4, 15, -0.4
22) CCCN1C[C@H](C)[C@H](OC)CN(C)C(=O)c2ccc(NC(=O)C3CCC3)cc2OC[C@H]1C
 : 0, 3, -1.5
23) COC(=O)C[C@@H]1CC[C@@H]2[C@H](COC[C@H](O)CN2C(=O)Nc2ccccc2OC)O1
 : 7, -4, -0.7
24) COc1ccc2c3c(n(C)c2c1)[C@H](CO)N(C(=O)Nc1cccc(F)c1)CC31CCN(C)CC1
 : 6, -9, 0.6
25) CC1(C(=O)NS(=O)(=O)c2ccccc2)CCN1C(=O)Cc1cc(F)ccc1F (stereo unspecified)
 : 4, 16, -2.5
26) COCC#Cc1ccc2c(c1)O[C@@H](CN(C)CC1CCOCC1)[C@H](C)CN([C@@H](C)CO)S2(=O)=O
 : -4, -10, -1.2
27) C[C@H]1CN([C@@H](C)CO)C(=O)Cc2cc(NS(=O)(=O)c3cccs3)ccc2O[C@H]1CN(C)S(=O)(=O)c1ccc(Cl)cc1
 : 4, -9, 10
28) CCCN(C)C[C@H]1OCCCC[C@H](C)Oc2ccc(NC(=O)CCC(F)(F)F)cc2C(=O)N([C@H](C)CO)C[C@@H]1C
 : 3, 4, 0.2
29) C[C@H](CO)N1C[C@H](C)[C@H](CN(C)Cc2ccc(F)cc2)OCc2ccccc2-c2c(n(C)c3ccccc23)C1=O
 : -3, -6, 3.8
30) Cc1ccc(S(=O)(=O)Nc2ccc3c(c2)C(=O)N([C@H](C)CO)C[C@H](C)[C@@H](CN(C)C(=O)c2ccccc2)OCCCC[C@@H](C)O3)cc1
 : -1, -7, 4.1

Pulled by structure from the list above, 4 records:
Order of results: rRNA inh HTS, rRNA inh HTS OD600, rRNA inh HTS RFP
27) C[C@H]1CN([C@@H](C)CO)C(=O)Cc2cc(NS(=O)(=O)c3cccs3)ccc2O[C@H]1CN(C)S(=O)(=O)c1ccc(Cl)cc1
 : 4, -9, 10
18) C[C@@H]1CN([C@H](C)CO)C(=O)c2cccc(NC(=O)Nc3ccccc3)c2O[C@H]1CN(C)Cc1ccc(C(F)(F)F)cc1
 : -7, -9, -3.3
28) CCCN(C)C[C@H]1OCCCC[C@H](C)Oc2ccc(NC(=O)CCC(F)(F)F)cc2C(=O)N([C@H](C)CO)C[C@@H]1C
 : 3, 4, 0.2
16) C/C=C/c1cnc2c(c1)C(=O)N([C@H](C)CO)C[C@@H](C)[C@@H](CN(C)C(=O)C1CCC1)O2
 : 5, 12, -0.8

(listing goes on)
Order of results: rRNA inh HTS, rRNA inh HTS OD600, rRNA inh HTS RFP
31) C[C@H]1CN([C@@H](C)CO)C(=O)Cc2cc(NC(=O)C3CCCCC3)ccc2O[C@H]1CN(C)C(=O)Nc1ccc(F)cc1
 : -1, -5, -2.2
32) COc1ccc(S(=O)(=O)Nc2cccc3c2O[C@@H](CN(C)Cc2ccc(Oc4ccccc4)cc2)[C@H](C)CN([C@H](C)CO)C3=O)cc1
 : 2, 0, 0.1
33) COCC#Cc1ccc2c(c1)O[C@H](CN(C)S(=O)(=O)c1ccc(F)cc1)[C@@H](C)CN([C@@H](C)CO)S2(=O)=O
 : -1, -5, 1.6
34) CC(=O)N(C)C[C@@H]1Oc2ncc(C#Cc3cccnc3)cc2C(=O)N([C@H](C)CO)C[C@H]1C
 : 2, 0, -2.9
35) C/C=C/c1ccc2c(c1)O[C@H](CN(C)C(=O)Nc1ccc(F)cc1)[C@H](C)CN([C@@H](C)CO)S2(=O)=O
 : -8, -3, 1.5
36) COc1cccc(C#Cc2ccc([C@@H]3[C@H]4CN(C(=O)Cc5cccnc5)CC(=O)N4[C@H]3CO)cc2)c1
 : -10, -37, 6.5
37) C[C@@H]1CCCCO[C@H](CN(C)C(=O)C2CCCCC2)[C@@H](C)CN([C@@H](C)CO)C(=O)c2cc(NS(=O)(=O)c3cn(C)cn3)ccc2O1
 : 1, 5, 1.4
38) C[C@H](CO)N1C[C@H](C)[C@H](CN(C)C(=O)NC2CCCCC2)OCCCC[C@H](C)Oc2ccc(NS(=O)(=O)c3ccccc3)cc2C1=O
 : -6, -21, 3.7
39) C[C@@H](NC(=O)C[C@@H]1CC[C@H]2[C@@H](COC[C@@H](O)CN2Cc2ccc(C(F)(F)F)cc2)O1)c1ccccc1
 : 0, 2, 0.8
40) C[C@H](CO)N1C[C@H](C)[C@H](CN(C)Cc2cccc3c2OCCCO3)OCc2cnnn2CCCC1=O
 : 0, -1, 1.4
41) O=C(C[C@H]1C[C@H]2c3cc(NS(=O)(=O)c4ccc(F)cc4)ccc3O[C@H]2[C@@H](CO)O1)N1CCOCC1
 : 0, 5, -1.3
42) CO[C@@H]1CN(C)C(=O)c2cc(NC(=O)C3CCC3)ccc2OC[C@H](C)N(Cc2nccs2)C[C@H]1C
 : -1, 4, -2.1
43) O=C(c1cccc(F)c1)N1CC2(C1)[C@H](c1ccccc1)[C@@H](CO)N2Cc1ccccn1
 : -1, 14, 0.5
44) N#Cc1ccc(OCC(=O)NCCCN2CCCC2=O)cc1
 : 15, 13, -0.7
45) OC[C@@H]1[C@H](c2ccc(-c3cccc(F)c3)cc2)[C@H]2CN(CCC(F)(F)F)CCCCN12
 : -58, -70, -13

The last two entries of the part above are carried over, then new ones follow:
Order of results: rRNA inh HTS, rRNA inh HTS OD600, rRNA inh HTS RFP
44) N#Cc1ccc(OCC(=O)NCCCN2CCCC2=O)cc1
 : 15, 13, -0.7
45) OC[C@@H]1[C@H](c2ccc(-c3cccc(F)c3)cc2)[C@H]2CN(CCC(F)(F)F)CCCCN12
 : -58, -70, -13
46) Cc1noc(C)c1S(=O)(=O)Nc1cccc2c1O[C@H](CN(C)C(=O)Nc1ccc(C(F)(F)F)cc1)[C@H](C)CN([C@H](C)CO)C2=O
 : -7, -7, -1.5
47) C[C@@H]1CCCCO[C@H](CN(C)C(=O)CCC(F)(F)F)[C@@H](C)CN([C@H](C)CO)C(=O)c2cc(NC(=O)c3ccncc3)ccc2O1
 : -2&1, 1&-4, -0.7&-0.4
48) CCC(=O)N(C)C[C@H]1Oc2ncc(C#CC(C)C)cc2C(=O)N([C@@H](C)CO)C[C@@H]1C
 : 2, 1, -2.4
49) COc1ccccc1C#Cc1ccc2c(c1)[C@@H]1[C@@H](CCN1S(=O)(=O)c1cn(C)cn1)[C@@H](CO)N2
 : -13, -3, -0.3
50) COc1ccccc1NC(=O)N(C)C[C@H]1Oc2ncc(Br)cc2C(=O)N([C@@H](C)CO)C[C@H]1C
 : 0, -1, -0.6
51) COCC(=O)N1[C@H](CO)[C@@H]2c3ccccc3N(C(=O)c3cccc(OC)c3)C[C@@H]21
 : -1, 7, -3.0
52) COc1ccc(CN(C)C[C@H]2OCCCC[C@H](C)Oc3ccc(NC(=O)Nc4ccc(F)cc4)cc3C(=O)N([C@H](C)CO)C[C@@H]2C)cc1
 : -11, -32, 29
53) O=C(NCC[C@H]1CC[C@H](NC(=O)c2ccccc2F)[C@@H](CO)O1)c1cnccn1
 : 1, 6, 0.1
54) C[C@@H]1CN([C@H](C)CO)C(=O)c2cc(NC(=O)Cc3ccccc3)ccc2O[C@@H](C)CCCCO[C@H]1CN(C)C(=O)Nc1ccc(F)cc1
 : 1, 1, 0.7
55) Cc1ccc(S(=O)(=O)N2CC[C@@H]3[C@@H](CO)Nc4ccc(C#Cc5cccc(F)c5)cc4[C@@H]32)cc1
 : 3, 9, 0.2
56) COc1ccccc1-c1cnc2c(c1)C(=O)N([C@H](C)CO)C[C@@H](C)[C@H](CN(C)C(=O)c1ccncc1)O2
 : 1, 2, -1.9
57) COc1ccc(OCCN2CCC(C(=O)NC(c3ccc(F)cc3)c3ncccc3C)CC2)cc1 (stereo unspecified)
 : -36, -44, -3.5
58) Cc1cc(C)c2c(CN3CCCCCCC3)cc(=O)oc2c1
 : 3, 7, -1.3
59) C[C@@H]1CCCCO[C@@H](CN(C)S(=O)(=O)c2ccc(F)cc2)[C@@H](C)CN([C@H](C)CO)C(=O)c2cc(NS(C)(=O)=O)ccc2O1
 : 0, -1, -1.2
60) COc1cc(NC(=O)c2ccc(-c3ccnn3C)c3ccoc23)cc(OC)c1OC
 : -5, 16, -3.9
61) CC(C)NC(=O)Nc1cccc2c1O[C@H](CN(C)S(=O)(=O)c1ccc(F)cc1)[C@@H](C)CN([C@@H](C)CO)C2=O
 : 1, -1, -0.8
62) O=C(C[C@@H]1CC[C@H](NS(=O)(=O)c2ccc(F)cc2)[C@@H](CO)O1)NCCc1ccncc1
 : 0, 7, 0.5
63) CC(C)NC(=O)Nc1cccc2c1O[C@H](CN(C)C(=O)Nc1ccccc1)[C@@H](C)CN([C@@H](C)CO)C2=O
 : 2, 4, 1.7
64) NCC[C@@H]1CC[C@H](NS(=O)(=O)c2ccc(Cl)cc2)[C@H](CO)O1
 : 2, 4, -0.4
65) Cc1ccccc1-c1cnc2c(c1)C(=O)N([C@H](C)CO)C[C@@H](C)[C@@H](CN(C)Cc1cccnc1)O2
 : 0, -5, -3.2
66) O=C(NCC(F)(F)F)[C@@H]1[C@@H](CO)[C@@H]2Cn3c(cccc3=O)[C@H]1N2CCC(F)(F)F
 : 0, 7, -2.8
67) Cc1[nH]c2ccccc2c1CC(=O)Nc1ccc(Nc2cccnc2)c(-c2cccc(Cl)c2)c1
 : -3, -8, 7.4
68) COc1cccc(C(NC(C)=O)c2nc(-c3csc4ccccc34)cs2)c1 (stereo unspecified)
 : -19, -23, -0.7
69) CC(CNC(=O)[C@@H](Cc1ccccc1)NC(=O)[C@H]1O[C@@H](n2ccc(=O)[nH]c2=O)[C@H](O)[C@@H]1O)c1ccccc1 (stereo partly specified)
 : 10, -4, 2.9
70) O=C(N[C@H]1CC[C@H](CCn2cc(-c3ccccc3)nn2)O[C@H]1CO)c1ccccc1F
 : -5, -2, -1.2
